Bioassay records (PubChem BioAssay)
fixLJ activator: activators of Burkholderia fixLJ two-component system, primary screen, B. multivorans, GFP reporter. AID 1918990, 2023. 29,000 compounds, 0.3% hits. B. multivorans fixK-promoter GFP reporter, 18 h; stronger effect = higher value. z-score (test concentration not listed);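 active means replicate mean overnight rise in green fluorescent reporter signal, 3 or more SD over negative controls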;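 further: score is relative to vehicle wells of the plate; 300 nL library stock went into each well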
Active calls of the source: *; & = joins results of further samples. Some of the compounds tested; the hit share may differ from the screen's.

Cc1cccc(N2CCN(C(=O)c3cc4c(=O)[nH]c5ccc(C)cc5c4s3)CC2C)c1 (stereo not drawn) was read as fixLJ activator 0.35.
CCOc1ccc(-c2cc(NC(=O)c3ccccc3)c(C(=O)OC)s2)cc1 was read as fixLJ activator -1.9.
Cc1ccccc1NC(=O)CCOc1ccccc1 was read as fixLJ activator -1.8.
CCCOc1ccc(CNC(=O)C2CCN(C(=O)c3sccc3-n3cccc3)CC2)cc1 was read as fixLJ activator -2.7.
N#C/C(=C\c1ccccc1)C(=O)Nc1sc2c(c1C(N)=O)CCC2 was read as fixLJ activator 0.34.
For Cn1c2ccccc2c2cnn(CC(=O)Nc3ccccc3F)c(=O)c21 the results were fixLJ activator -0.54.
`Cc1cc(Cl)ccc1OCC(=O)N(Cc1ccco1)Cc1ccco1` gave fixLJ activator -0.09.
Cc1cc(C)cc(OCc2cc(=O)n3cc(C)sc3n2)c1 was read as fixLJ activator -2.2.
Screening Cc1ccnn1CCC(=O)N1CCC2OCc3cnnn3C2C1 (stereo not drawn) returned fixLJ activator -0.94.
Screening COc1cccc(-n2c(=O)c3sc4ccccc4c3n(CC(=O)NC3CCCCC3)c2=O)c1 returned fixLJ activator 1.8.
`COc1ccc(CCN2CCC(Nc3nc4ccccc4n3Cc3ccc(F)cc3)CC2)cc1` gave fixLJ activator -1.6&-0.25.
CCN(C(=O)c1cc2c(s1)-c1c(C)cccc1OC2)c1ccccc1F was read as fixLJ activator 0.25.
For COc1cc2c(cc1OC)C(c1ccc(F)cc1)N(c1ccc(F)cc1)C(=O)C2 (stereo not drawn) the results were fixLJ activator 1.8.
For CCCOC(=O)CSc1ncnc2sc3c(c12)CCC(C)C3 (stereo not drawn) the results were fixLJ activator -0.74.
`O=C(NCc1cc(-c2cccnc2)no1)c1ccc2n[nH]nc2c1` gave fixLJ activator -1.2.
O=c1n(Cc2ccccc2)nc2n1-c1cc(Cl)ccc1OC2 was read as fixLJ activator 0.15.
COCC1C(NC(=O)c2ccc(C)c(N3CCNC3=O)c2)C2CCOC21 (stereo not drawn) was read as fixLJ activator -3.2.
CCc1cc(=O)oc2c(C)c3c(cc12)CN(CCc1ccccc1OC)CO3 was read as fixLJ activator -1.4.
`COc1ccccc1C(=O)NC1(C(F)(F)F)C(=O)NC(C)=C1C#N` (stereo not drawn) gave fixLJ activator -0.15.
For Cc1cccc(CC(=O)N2CC(=O)Nc3ccc(Br)cc3C2c2ccc(F)cc2)c1 (stereo not drawn) the results were fixLJ activator -1.9.
Cc1ccc(NC(=O)/C=C/c2ccccc2Cl)cc1Cl was read as fixLJ activator 1.9.
`COC(=O)c1c(SC)nc2ccccc2c1OCc1ccc(Br)cc1` gave fixLJ activator -0.53.
`N#Cc1ccc(C(=O)Nc2ccc(Cl)c(-c3nc4cc(Cl)ccc4o3)c2)c(F)c1` gave fixLJ activator -2.
`COCCn1c(CO)nnc1C1CC(NC(=O)c2ccc(C)cc2C)C1` (stereo not drawn) gave fixLJ activator -0.94.
CCOc1ccc(C2CC(=O)Nc3c2c(=O)[nH]c2ncnn32)cc1 (stereo not drawn) was read as fixLJ activator -2.3.
For C=CCOc1cc(Cl)c(CN2CCS(=O)(=O)CC2)cc1OC the results were fixLJ activator 0.14.
For Cc1ccc(OCC(=O)Nc2ccc(OCc3cc(=O)n4ccsc4n3)cc2)cc1C the results were fixLJ activator 0.92.
`Cc1ccc2cc3cc(C(=O)N4CCN(c5ccccc5)CC4)sc3nc2c1` gave fixLJ activator -0.75.
`CSc1ncc(Cl)c(C(=O)Nc2ccc(NC(C)=O)cc2)n1` gave fixLJ activator -1.9.
For O=C(NCC1CCN(Cc2cccc(Cl)c2)CC1)Nc1cc(Cl)ccc1Cl the results were fixLJ activator -2.5.
CCOc1ccc(-n2nc(CO)c(C(=O)NCCCc3ccccc3)n2)cc1 was read as fixLJ activator 2.4.
For CCCCN(C)C(=O)c1nc2ccccn2c1CN1CCOCC1 the results were fixLJ activator -1.
c1ccc(COC2CCCN(c3nccc(-c4ccccn4)n3)C2)nc1 (stereo not drawn) was read as fixLJ activator 1.4.
Screening Cc1ccc2c(c1)sc1nc(=O)n(-c3ccc(Cl)c(Cl)c3)c(=O)n12 returned fixLJ activator -5.8.
For c1ccc(C(Cn2cccn2)n2ccnc2-c2cnn3cccnc23)cc1 (stereo not drawn) the results were fixLJ activator -0.16.
For COc1ccc(N2CC3=C(C2=O)C(c2ccc(Br)cc2)NC(=O)N3C)cc1 (stereo not drawn) the results were fixLJ activator -0.43.
For CCOC(=O)c1ccc(N2C(=O)c3n[nH]c(C)c3C2c2ccc(C(C)(C)C)cc2)cc1 (stereo not drawn) the results were fixLJ activator 0.18.
Screening COc1ccc(N(C(=O)COc2ccccc2OC)S(=O)(=O)c2ccc(Cl)cc2)cc1 returned fixLJ activator 0.44.
`COc1ccc(OC)c(Nc2nc3ccccc3n3c(C)nnc23)c1` gave fixLJ activator 0.89.
COc1ccc(CN(CCC(c2ccc3c(c2)OCO3)c2ccccc2OC)C(C)=O)cc1 (stereo not drawn) was read as fixLJ activator 1.2.
Screening CCCCC12CN3CC(C)(CN(C1)C3c1c(C)[nH]c(=O)[nH]c1=O)C2=O (stereo not drawn) returned fixLJ activator -1.7.
Screening CC(C)(C)c1ccc(C(=O)N(Cc2ccc(F)cc2)Cc2ccco2)cc1 returned fixLJ activator 1.5.
`Cc1ccc(Cl)cc1NC(=O)NCc1cccn1Cc1ccc(F)cc1` gave fixLJ activator -0.19.
`CCOC(=O)c1ccc(NC(=O)c2ccc(-c3cccc(Cl)c3C)o2)cc1` gave fixLJ activator -0.6.
`CC(=O)c1c(C)nn(CC(=O)N2CCn3cccc3C2c2cccnc2)c1C` (stereo not drawn) gave fixLJ activator 0.17.
Screening Cc1cc(C)nc(NS(=O)(=O)c2ccc(NC(=O)COc3ccc(Cl)cc3C)cc2)n1 returned fixLJ activator -1.6.
For CCCN(c1ccc(C(C)C)cc1)S(=O)(=O)c1ccc2c(c1)CCN2C(=O)CC the results were fixLJ activator -1.9.
Screening Cc1ccc2c(=O)n(-c3cccc(Cl)c3)c(=O)[nH]c2c1 returned fixLJ activator 0.59.
For Cc1cc(C(F)(F)F)n(CC(C)CNc2ccc(C(=O)O)nn2)n1 (stereo not drawn) the results were fixLJ activator 0.3.
O=C(NCCn1cc(SCc2ccccc2F)c2ccccc21)c1cccs1 was read as fixLJ activator 0.99.
For CCCCc1ccc(NC(=O)C2(C)Cc3ccccc3C(=O)O2)cc1 (stereo not drawn) the results were fixLJ activator -0.77.
`CN(C(=O)c1ccc2cccc(F)c2n1)C1CCS(=O)(=O)CC1` gave fixLJ activator -0.41.
Screening O=C(NCCc1cnn(-c2ccccc2)c1)C(Cc1ccccc1)n1cnnn1 (stereo not drawn) returned fixLJ activator 0.01.
For O=C(c1nc2ccccn2c1-c1nc2ccccc2[nH]1)N1CCOCC1 the results were fixLJ activator 0.12.
Screening O=c1nc2n(-c3ccccc3F)c3ccccc3cc-2c(=O)[nH]1 returned fixLJ activator -0.4.
Screening O=C(CN1CCCN(S(=O)(=O)c2ccc(Br)cc2)CC1)Nc1cccc(C(F)(F)F)c1 returned fixLJ activator 0.56.
`O=C1O[C@H](C(O)CO)C(O)=C1O` (stereo partly drawn) gave fixLJ activator -1.1.
`CC1=C(C(=O)OC2CCCC2)C(c2c(Cl)cccc2Cl)CC(=O)N1` (stereo not drawn) gave fixLJ activator -0.55.
Screening CN(Cc1ccccc1)C(=O)Cn1ncc2c3ccccc3n(Cc3cccc(Cl)c3)c2c1=O returned fixLJ activator 5.5*.
`CCCc1nc(C(=O)NCc2nc(C)cc(C(F)(F)F)n2)cs1` gave fixLJ activator -1.2.
O=C(O)C1=CC(c2ccc(Br)cc2)n2ncnc2N1 (stereo not drawn) was read as fixLJ activator 0.29.
For COC(=O)c1sc(N2C(=O)c3oc4ccc(C)cc4c(=O)c3C2c2ccc(O)c(OC)c2)nc1C (stereo not drawn) the results were fixLJ activator 0.16.
Screening Cc1cc2nc(-c3cccc(NC(=O)COc4ccc(Cl)c(C)c4)c3)oc2cc1C returned fixLJ activator -1.4.
Screening Cc1ccc(N(CC(O)Cn2c3ccccc3c3ccccc32)S(=O)(=O)c2ccc(F)cc2)cc1 (stereo not drawn) returned fixLJ activator -0.04.
`Cc1cc(C)n2c(Nc3ccc4c(c3)OCCO4)c(-c3ccc(Cl)cc3)nc2n1` gave fixLJ activator 0.41.
`COc1ccc(-c2nc3cc(C)ccn3c2NC(=O)c2cccc(F)c2)cc1` gave fixLJ activator 0.17.
`COc1ccc(CCNC(=O)CCc2c(C)nc3nc(C)nn3c2C)cc1OC` gave fixLJ activator -0.88.
For CN1C(=O)C(CC(=O)N2CCNC(=O)CC2)(Cc2ccccc2)c2ccccc21 (stereo not drawn) the results were fixLJ activator 1.3.
For CCCSc1ncc(Cl)c(C(=O)N(Cc2ccc(Cl)cc2)Cc2ccco2)n1 the results were fixLJ activator -1.5.
`CCN(C(=O)c1ccc(C(=O)N(CC)c2ccccc2C)cc1)c1ccccc1C` gave fixLJ activator -0.31.
For CCc1ccccc1NC(=O)CSc1nnc(COc2ccccc2Cl)o1 the results were fixLJ activator -0.06.
For CCCSc1nnc2c(n1)OC(c1cccs1)Nc1ccc(Br)cc1-2 (stereo not drawn) the results were fixLJ activator 0.13.
`Cc1ccccc1SCC(=O)NC(C)c1nnc(C(C)C)o1` (stereo not drawn) gave fixLJ activator 1.1.
Screening O=C(CN1CCCC(c2ccc(C(=O)O)cc2)C1)NC1CC1 (stereo not drawn) returned fixLJ activator -0.77.
Screening CCC(NC(=O)CCCn1nc(C)cc1C)c1ncc(C)[nH]1 (stereo not drawn) returned fixLJ activator -0.04.
For Cc1cnn(CC2CCN(C(=O)c3ccc(N(C)CCO)cc3)CC2)c1 the results were fixLJ activator -0.85.
`Cc1ccc(C)c(N2CCN(S(=O)(=O)c3ccc(C4CCCCC4)cc3)CC2)c1` gave fixLJ activator -0.73.
CCC1=Nc2cc(C(=O)N3CCC(C)CC3)ccc2Sc2ccc(C)cc21 was read as fixLJ activator 0.05.
For COc1ccc(NC(=O)CC2C(=O)N(c3ccc(C)cc3)C(=O)N2Cc2ccc3c(c2)OCO3)cc1 (stereo not drawn) the results were fixLJ activator 1.8.
Cc1cc(C)c2oc(-c3cccc(NC(=O)c4cccc(F)c4)c3C)nc2c1 was read as fixLJ activator -1.9.
For COc1ccc(CCNC(=O)c2cc3c(=O)[nH]c4ccc(C)cc4c3s2)cc1OC the results were fixLJ activator -1.3.
CCOc1ccc(NC(=O)C2CCN(S(=O)(=O)c3c(C)noc3/C=C/c3cccs3)CC2)cc1 was read as fixLJ activator -1.1.
Screening Cc1ccc(-c2nc3nc(C)cc(N4CCN(c5cc(Cl)ccc5C)CC4)n3n2)cc1 returned fixLJ activator -0.98.
Screening COc1ccc(CNC(=O)c2ccc(CNS(=O)(=O)c3ccc(OC)cc3)cc2)cc1 returned fixLJ activator 0.21.
For COc1ccc(-c2c(C#N)c(N)nc3c2CCCC3)c(OC)c1OC the results were fixLJ activator -0.83.
Cc1ccccc1NC(=O)CSC1=Nc2ccccc2C2=NC(CCC(=O)NCc3ccccc3)C(=O)N12 (stereo not drawn) was read as fixLJ activator -1.8.
`CCc1nc(CN2CCCC(C(=O)Cc3ccccc3)C2)no1` (stereo not drawn) gave fixLJ activator -0.1.
For Cc1ccc(C(=O)N2CC[C@](Cc3ccccc3)(C(=O)O)C(O)C2)cc1C (stereo partly drawn) the results were fixLJ activator -0.19.
`COc1ccc(NC(=O)Nc2sc3nc4n(c(=O)c3c2C)CCC(C)CC4)cc1OC` (stereo not drawn) gave fixLJ activator -0.67.
For O=C(CCn1cnnn1)Nc1cc(C(F)(F)F)cc(C(F)(F)F)c1 the results were fixLJ activator -1.7.
Screening Fc1ccc([C@@H]2CCNC[C@H]2COc2ccc3c(c2)OCO3)cc1 returned fixLJ activator -1.2&-0.52.
CCc1c(C)nn(CC(=O)Nc2cc(Cl)ccc2N(C)C)c1C was read as fixLJ activator -4.3.
Screening Cc1ccc2c(C)c(C(=O)N(Cc3ccc(Cl)cc3)C3CCS(=O)(=O)C3)oc2c1 (stereo not drawn) returned fixLJ activator -2.2.
`Cc1cccc(N2CCN(C(=O)Cn3ncc4c5ccccc5n(C)c4c3=O)CC2C)c1` (stereo not drawn) gave fixLJ activator -3.1.

Quoted from the entries so far for reference:
`Cc1ccc(C)c(N2CCN(S(=O)(=O)c3ccc(C4CCCCC4)cc3)CC2)c1` gave fixLJ activator -0.73.
CCC1=Nc2cc(C(=O)N3CCC(C)CC3)ccc2Sc2ccc(C)cc21 was read as fixLJ activator 0.05.
For COc1ccc(NC(=O)CC2C(=O)N(c3ccc(C)cc3)C(=O)N2Cc2ccc3c(c2)OCO3)cc1 (stereo not drawn) the results were fixLJ activator 1.8.
Cc1cc(C)c2oc(-c3cccc(NC(=O)c4cccc(F)c4)c3C)nc2c1 was read as fixLJ activator -1.9.
For COc1ccc(CCNC(=O)c2cc3c(=O)[nH]c4ccc(C)cc4c3s2)cc1OC the results were fixLJ activator -1.3.
CCOc1ccc(NC(=O)C2CCN(S(=O)(=O)c3c(C)noc3/C=C/c3cccs3)CC2)cc1 was read as fixLJ activator -1.1.
Screening Cc1ccc(-c2nc3nc(C)cc(N4CCN(c5cc(Cl)ccc5C)CC4)n3n2)cc1 returned fixLJ activator -0.98.
Screening COc1ccc(CNC(=O)c2ccc(CNS(=O)(=O)c3ccc(OC)cc3)cc2)cc1 returned fixLJ activator 0.21.
For COc1ccc(-c2c(C#N)c(N)nc3c2CCCC3)c(OC)c1OC the results were fixLJ activator -0.83.
Cc1ccccc1NC(=O)CSC1=Nc2ccccc2C2=NC(CCC(=O)NCc3ccccc3)C(=O)N12 (stereo not drawn) was read as fixLJ activator -1.8.
`CCc1nc(CN2CCCC(C(=O)Cc3ccccc3)C2)no1` (stereo not drawn) gave fixLJ activator -0.1.
For Cc1ccc(C(=O)N2CC[C@](Cc3ccccc3)(C(=O)O)C(O)C2)cc1C (stereo partly drawn) the results were fixLJ activator -0.19.
`COc1ccc(NC(=O)Nc2sc3nc4n(c(=O)c3c2C)CCC(C)CC4)cc1OC` (stereo not drawn) gave fixLJ activator -0.67.
For O=C(CCn1cnnn1)Nc1cc(C(F)(F)F)cc(C(F)(F)F)c1 the results were fixLJ activator -1.7.
Screening Fc1ccc([C@@H]2CCNC[C@H]2COc2ccc3c(c2)OCO3)cc1 returned fixLJ activator -1.2&-0.52.
